# Source: PubChem
# AF4-AF9 inh: inhibitors of human MLL-AF4/AF9 interaction. P42568. hit rate 0.47% among 350,000. inhibition, % at 10 µM. AlphaScreen, biotin-AF4 peptide binding to FLAG-AF9;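 active = every replicate reaching a set inhibition limit, whatever the replicate mean, cut at about 25% in these data; inconclusive = mean inhibition reaches that limit but some replicates miss it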;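 also: 0% = plate neutral control median and 100% = total signal loss; the record names both 10 and 1 µM as test concentration; the first replicate is given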
# Target sequence (P42568 whole entry, looked up): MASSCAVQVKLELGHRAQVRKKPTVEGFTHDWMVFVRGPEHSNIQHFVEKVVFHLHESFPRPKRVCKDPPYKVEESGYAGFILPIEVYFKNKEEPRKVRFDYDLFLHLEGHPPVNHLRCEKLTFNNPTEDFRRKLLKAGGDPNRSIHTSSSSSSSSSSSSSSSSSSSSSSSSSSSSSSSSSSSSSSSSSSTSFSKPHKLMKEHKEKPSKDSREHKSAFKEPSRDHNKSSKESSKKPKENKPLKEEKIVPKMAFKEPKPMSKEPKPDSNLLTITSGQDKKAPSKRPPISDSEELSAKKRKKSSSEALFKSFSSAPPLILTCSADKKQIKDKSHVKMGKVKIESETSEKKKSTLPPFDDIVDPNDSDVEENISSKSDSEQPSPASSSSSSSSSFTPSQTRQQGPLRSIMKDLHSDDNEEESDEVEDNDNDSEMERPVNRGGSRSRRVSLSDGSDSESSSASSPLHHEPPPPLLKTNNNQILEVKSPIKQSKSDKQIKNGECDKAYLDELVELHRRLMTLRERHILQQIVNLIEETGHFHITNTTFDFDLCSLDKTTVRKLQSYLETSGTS
# rRNA inh HTS: inhibitors of bacterial rRNA selective over humanized ribosomes; E. coli WT GFP vs humanized-ribosome RFP mutants, fluorescence, 24 h; stronger effect = lower value; DMSO median 0, no signal -100; GFP signal change (wild-type ribosome), % (no concentration beside the values); hit rate 1.6% among 350,000; AID 720706;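 active = significant combined selectivity score with lowered wild-type GFP, culture density cut under 30%, mutant RFP and density less affected; inactive = any of these conditions unmet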; also: one replicate is shown; some compounds called inactive have numbers as strong as hits
# T cruzi repl: T. cruzi replication inhibition; hit rate 1.4% among 300,000; inhibition, % (no concentration beside the values); AID 1885; T. cruzi beta-gal in NIH3T3, luminescence, 90 h;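 active = mean inhibition across valid replicates above about 55%, limit read from the data; inconclusive = mean below that limit but half or more replicates reach it; inactive = mean below it, under half of replicates reach it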;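 also: signal also drops with host cell toxicity which is not excluded here; 0% = plate median of DMSO wells and 100% = zero luminescence signal; higher percent means less beta-gal luminescence so fewer parasites; stock transfer was 50 nL into about 50 µL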
# RanGTP-Impb inh: inhibitors of RanGTP-importin-beta interaction, primary screen, biochemical, FRET, CFP-Ran, YFP-importin-beta, homogeneous. hit rate 1.1% among 300,000. cell-free CFP-Ran/YFP-importin-beta FRET ratio. inhibition, % (test concentration not listed);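 active = most replicates above 15%; inconclusive = exactly half above 15%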;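 also: 0% = DMSO wells and 100% = Ran loaded with GDP instead of GTP; wells of about 40 µL received 100 nL stock; the first replicate is given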
# ALR inh: blocks human ALR sulfhydryl oxidase activity. P55789. purified ALR, DTT oxidation, H2O2 HRP-luminol luminescence. inhibition, % (concentration not given with the values). AID 485317. hit rate 3.8% among 290,000;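 active = mean and each replicate at 75% or more; inconclusive = only one of the two met; inactive = neither met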;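 also: stock transfer was 7.5 nL into about 7.5 µL; 0% = neutral wells and 100% = wells with inactivated enzyme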
# Target sequence (P55789 whole entry, looked up): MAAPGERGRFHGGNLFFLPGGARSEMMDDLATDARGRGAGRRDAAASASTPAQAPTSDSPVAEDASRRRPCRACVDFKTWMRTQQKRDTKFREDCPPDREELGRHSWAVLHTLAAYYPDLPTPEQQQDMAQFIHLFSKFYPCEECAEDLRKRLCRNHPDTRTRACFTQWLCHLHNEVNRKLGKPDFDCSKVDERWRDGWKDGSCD
# Beta apoptosis: blocks beta cell apoptosis; INS-1E cytokine-induced death, ATP luminescence, 48 h; percent of positive-control rescue, neutral wells zero; protection from apoptosis, % (no concentration beside the values); hit rate 0.8% among 300,000;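 active = all replicates at 75% or more, or half of them and the mean; inconclusive = half reach 75% but not the mean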;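 also: 0% = cytokine-treated negative control wells and 100% = positive control rescue; higher means more ATP so stronger rescue from cytokine killing; wells of about 40 µL received 100 nL stock; the first replicate is given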
# FGF22 binding: shifts melting point of recombinant human FGF22. calls only at 9.99 µM. hit rate 1.5% among 340,000. recombinant FGF22 thermal shift, SYPRO orange fluorescence; percent of sucrose octasulfate shift, DMSO zero;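 active = melting point raised past a set limit in the mean and every replicate; inconclusive = no clear call; three in four hits are not shown here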
# Calb FLC: C. albicans growth modulation with fluconazole. AID 1979. hit rate 0.57% among 300,000. growth inhibition, % (test concentration not listed). C. albicans CaCi-2 (fluconazole-resistant clinical isolate) + fluconazole, Alamar Blue growth, 48 h;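 active = most replicates above 75%; inconclusive = exactly half above 75%; inactive = most below 75%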;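 also: all wells also contain fluconazole at 8 µg/ml as a sub-toxic cotreatment; 0% = median of DMSO wells and 100% = median of geldanamycin control wells; wells of about 8 µL received 7.5 nL stock; the first replicate is given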
# rRNA inh HTS OD600: recorded beside rRNA inh HTS, whose call it bears; OD600 change, %; measured here: OD600 growth;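 optical density of the mix in the first replicate; 0 = DMSO median and -100 = no signal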
# rRNA inh HTS RFP: second read-out of rRNA inh HTS, no call of its own (marks repeat the call); RFP signal change, %; measured here: RFP humanized mutant strains;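 first replicate; 0 = DMSO median and -100 = no signal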
# Numbers without * were called inactive; i = inactive; ? = inconclusive; / = no result given.
SMILES,AF4-AF9 inh,rRNA inh HTS,rRNA inh HTS OD600,rRNA inh HTS RFP,T cruzi repl,RanGTP-Impb inh,ALR inh,Beta apoptosis,FGF22 binding,Calb FLC
CCOC(=O)C1=C(CC)Nc2ccccc2N=C1NC(=O)c1oc2ccccc2c1C,-4.6,10,10,5.9,49,1.3,/,7,/,8
Cc1ccc(S(=O)(=O)Nc2cc(C)c(O)cc2C)cc1,0.4,-15,-16,1.2,1,2.0,98*,/,i,-6
CC1(c2ccc(OC(F)F)cc2)NC(=O)N(CC(=O)N2c3ccccc3NC(=O)C2(C)C)C1=O (centres undefined),2.6,-2,-1,8.0,/,/,/,-2,i,/
N=c1n(CCN2CCCCC2)c2ccccc2n1CC(=O)c1cccc([N+](=O)[O-])c1,1.0,-16,14,-2.2,34,-0.7,3,43,i,-14
COc1cc2[nH]c(C(=O)N3CCN(c4ccccc4F)CC3)cc2c(OC)c1OC,6.3,-34,-31,-6.4,4,5.9,-15,3,i,11
Cn1c(=O)oc2cc(S(=O)(=O)NC(Cc3ccccc3)C(=O)N3CCCCC3)ccc21 (centres undefined),2.0,4,7,2.1,/,/,-24,/,i,/
COc1ccccc1N(C)S(=O)(=O)c1ccc(C(=O)N2CCCc3ccccc32)cc1,1.3,-20,-46,5.8,23,3.0,2,9,i,-1
Cc1ccc(C2=NN(C(=O)CCl)C(c3cccs3)C2)o1 (centres undefined),0.8,5,9,1.4,0,-2.9,98*,-24,i,13
CCCC(=O)n1nc(-c2ccccc2)nc1SC,/,/,/,/,-2,0.6,43,4,/,2
CCN(CC)c1cc(C)c2cc(NC(=O)c3ccccc3F)ccc2n1,2.3,-9,0,-7.6,6,4.3,-5,0,i,25

# For convenience, some entries already given:
SMILES,AF4-AF9 inh,rRNA inh HTS,rRNA inh HTS OD600,rRNA inh HTS RFP,T cruzi repl,RanGTP-Impb inh,ALR inh,Beta apoptosis,FGF22 binding,Calb FLC
CCCC(=O)n1nc(-c2ccccc2)nc1SC,/,/,/,/,-2,0.6,43,4,/,2
CCN(CC)c1cc(C)c2cc(NC(=O)c3ccccc3F)ccc2n1,2.3,-9,0,-7.6,6,4.3,-5,0,i,25

# (further entries)
SMILES,AF4-AF9 inh,rRNA inh HTS,rRNA inh HTS OD600,rRNA inh HTS RFP,T cruzi repl,RanGTP-Impb inh,ALR inh,Beta apoptosis,FGF22 binding,Calb FLC
Cc1cccc(C(=O)Oc2ccccc2C2C[C@]3(C)CC(=O)NC3N2C(=O)c2cccc(C)c2)c1 (some centres undefined),/,/,/,/,8,11,0,-4,/,4
COc1cccc(CC(NC(C)=O)C(=O)NC2CCN(S(=O)(=O)c3ccc4ccccc4c3)CC2)c1 (centres undefined),4.2,6,-1,-2.6,11,1.8,/,-8,i,27
COCC(=O)N1CCCC(C(=O)c2ccc(Oc3ccccc3)cc2)C1 (centres undefined),0.7,-23,-34,0.2,4,2.9,/,10,i,-5
Cc1ccc(S(=O)(=O)NCCC(=O)OCC(=O)Nc2ccccc2Cl)cc1,-6.6,1,3,-4.1,-5,2.2,0,-2,i,-3
CCn1c(SCC(=O)Nc2cc(C)on2)nnc1-c1ccccc1,/,/,/,/,12,4.3,-5,0,/,3
Cc1cccc2c(C(=O)O)c3cccc(C)c3nc12,1.8,-8,-18,-1.8,-17,?,-8,-4,i,1
O=C(Nc1nccs1)c1c(O)c2cccc3c2n(c1=O)CCC3,/,/,/,/,21,-1.5,-12,9,/,2
CN(C)S(=O)(=O)c1cccc(NC(=O)c2cnccn2)c1,/,/,/,/,-16,6.4,-8,-1,/,6
Cc1cccc(NC(=O)CCn2cnnn2)c1,0.6,15,9,5.9,-3,-3.7,-18,-7,i,31
O=C(CSc1nnc(NC(=O)c2ccccc2F)s1)NC1CC1,0.1,2,11,-0.7,-5,1.2,2,1,i,4
Cn1c(C(O)c2ccc(Br)cc2)nc(Cl)c1Cl (centres undefined),3.2,-18,-40,-3.8,7,1.1,/,-4,i,-9
COc1ccc(CCNC(=O)c2cc(-c3ccccn3)nc3ccccc23)cc1,-8.2,-4,-22,-0.3,/,/,-1,2,i,/
Cc1nnc(SCc2nnc(-c3cccs3)o2)n1C,-1.6,20,11,0.1,11,2.6,12,-1,i,12
Cc1ccc2[nH]c(-c3ccccc3)c(CN(C)C)c(=O)c2c1,/,/,/,/,-8,6.4,-1,-4,/,25
COc1cccc(C2=NOC(C(=O)Nc3cc(C)on3)C2)c1 (centres undefined),-5.8,0,-4,-3.1,8,19*,/,-3,i,-1
C=C[C@H](Cc1ccccc1)N(Cc1ccccc1)S(=O)(=O)N(Cc1ccccc1)[C@H](C=C)Cc1ccccc1,-0.9,6,3,-10,/,/,5,82*,i,/
CCOC(=O)c1c(NC(=O)/C=C/c2ccc3c(c2)OCO3)sc(C)c1CC,/,/,/,/,-15,?,0,2,/,-6
CC(=O)c1ccccn1,-0.7,/,/,/,-12,0.1,-8,-3,i,-1

# A different layout for part of the listing above:
# The line under a structure holds: AF4-AF9 inh	rRNA inh HTS	rRNA inh HTS OD600	rRNA inh HTS RFP	T cruzi repl	RanGTP-Impb inh	ALR inh	Beta apoptosis	FGF22 binding	Calb FLC
Cc1cccc2c(C(=O)O)c3cccc(C)c3nc12
  1.8	-8	-18	-1.8	-17	?	-8	-4	i	1
O=C(Nc1nccs1)c1c(O)c2cccc3c2n(c1=O)CCC3
  /	/	/	/	21	-1.5	-12	9	/	2
CN(C)S(=O)(=O)c1cccc(NC(=O)c2cnccn2)c1
  /	/	/	/	-16	6.4	-8	-1	/	6
Cc1cccc(NC(=O)CCn2cnnn2)c1
  0.6	15	9	5.9	-3	-3.7	-18	-7	i	31
O=C(CSc1nnc(NC(=O)c2ccccc2F)s1)NC1CC1
  0.1	2	11	-0.7	-5	1.2	2	1	i	4
Cn1c(C(O)c2ccc(Br)cc2)nc(Cl)c1Cl (centres undefined)
  3.2	-18	-40	-3.8	7	1.1	/	-4	i	-9
COc1ccc(CCNC(=O)c2cc(-c3ccccn3)nc3ccccc23)cc1
  -8.2	-4	-22	-0.3	/	/	-1	2	i	/
Cc1nnc(SCc2nnc(-c3cccs3)o2)n1C
  -1.6	20	11	0.1	11	2.6	12	-1	i	12
Cc1ccc2[nH]c(-c3ccccc3)c(CN(C)C)c(=O)c2c1
  /	/	/	/	-8	6.4	-1	-4	/	25
COc1cccc(C2=NOC(C(=O)Nc3cc(C)on3)C2)c1 (centres undefined)
  -5.8	0	-4	-3.1	8	19*	/	-3	i	-1
C=C[C@H](Cc1ccccc1)N(Cc1ccccc1)S(=O)(=O)N(Cc1ccccc1)[C@H](C=C)Cc1ccccc1
  -0.9	6	3	-10	/	/	5	82*	i	/
CCOC(=O)c1c(NC(=O)/C=C/c2ccc3c(c2)OCO3)sc(C)c1CC
  /	/	/	/	-15	?	0	2	/	-6
CC(=O)c1ccccn1
  -0.7	/	/	/	-12	0.1	-8	-3	i	-1

# Not all compounds are listed, so the mix of outcomes need not match the whole.
